Screening data: PubChem BioAssay, Fisher Drug Discovery Resource Center
NPYLR7 agonist = mosquito NPYLR7 agonism. HEK293T NPYLR7/Galpha15, GCaMP6s calcium fluorescence. activation, % at 10 µM. hit rate 0.15% among 270,000; in the data active means activation above about 40%;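 further: 0% = vehicle and 100% = reference agonist at the receptor; some compounds past the cut are filed as inactive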
NPYLR7 agonist max-min = also measured in NPYLR7 agonist; calls as there; activation, %; measured here: Max-Min RFU normalised activation; some inactives read as strong as hits;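 span of the calcium signal over five minutes; 0% = vehicle and 100% = native peptide agonist; compound fluorescence can raise it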
* = called active by the depositor; & = joins results of further samples. Not all compounds are listed. The share of hits here may be higher or lower than overall.

The opening 2 records as a preview:
SMILES | NPYLR7 agonist | NPYLR7 agonist max-min
c1ccc(-c2ccc3c(c2)OCO3)c(CN2CCNCC2)c1 | 12.1 | 2.4
CS(=O)c1nc(-c2ccccc2)cc(C(F)(F)F)n1 (centres undefined) | 9.5 | 4.3

The list itself, from the first entry:
SMILES | NPYLR7 agonist | NPYLR7 agonist max-min
c1ccc(-c2ccc3c(c2)OCO3)c(CN2CCNCC2)c1 | 12.1 | 2.4
CS(=O)c1nc(-c2ccccc2)cc(C(F)(F)F)n1 (centres undefined) | 9.5 | 4.3
Cc1n[nH]c(C)c1NC(=O)Cn1cc(S(=O)(=O)N2CCCC2)ccc1=O | -2.1 | 4.5
CC(c1cccnc1)N(C)C(=O)NC1CCCN(C2CCCCC2)C1 (centres undefined) | 6.8 | 4.1
COc1cccc(C(=O)N2CC(C)(C)SC23C(=O)N(Cc2ccccc2Cl)c2ccccc23)c1 (centres undefined) | 2.8 | 4.5
CC(C(=O)Nc1cc(C(F)(F)F)ccc1Cl)N1CCOCC1 (centres undefined) | -0.3 | -3.3
COc1ccc(S(=O)(=O)N(Cc2csc(COc3ccccc3C)n2)C(C)C)cc1 | -6.7 | -2.4
O=C(Cn1ncc(=O)c2ccccc21)NCc1ccc(Cl)cc1 | -1.0 | -2.2
CN1CCC(C(=O)NC2(C(=O)O)CCCCC2)CC1=O (centres undefined) | 2.4 | 9.2
O=C(NCCc1cnn(-c2ccccc2)c1)c1cccc2ccnn12 | 0.1 | -0.3
CC(C#N)OC(=O)c1cc(S(N)(=O)=O)ccc1Br (centres undefined) | -2.6 | -0.1
C#CCN(CC=C)Cc1nc(-c2ccc(F)c(OC)c2)oc1C | -0.2&0.8 | -0.5&0.8
Cc1ccc(C(=O)Nc2c3c(nn2-c2ccccc2C)CSC3)cc1C | 1.4 | 7.8
COc1ccc(Cc2noc(CN(C)C3CC(C)(C)NC(C)(C)C3)n2)cc1OC | 3.7 | -0.2
CCCCOc1ccc(C(=O)N2CCCC(C(=O)NC3CCCC[C@H]3NC(=O)c3ccc(F)cc3)C2)cc1 (some centres undefined) | 27.9 | 26.1
Cc1nc2ccc(C(=O)NCCc3c[nH]c4ccccc34)cn2c1N(C)C(=O)CCc1ccccc1 | 8.1 | 11.8
O=C1CNC(=S)N1c1ccc(OC(F)(F)F)cc1 | 5.5 | 3.5
NC(Cc1ccc(F)cc1)c1csc(Nc2ccc(C(F)(F)F)cn2)n1 (centres undefined) | -2.6 | -2.1
CCC(C(=O)Nc1ccc(-c2cn3nc(OC)ccc3n2)cc1)c1ccccc1 (centres undefined) | -8.4 | -15.4
CC(=O)Nc1ccc2nc(-c3nccn3CC(C)(C)CO)ccc2c1 | -7.8 | -7.6
CN1CCCC1CCn1nc(C2CCNCC2)n(-c2ccccc2)c1=O (centres undefined) | 4.2 | 2.0
O=C(Nc1ccnn1Cc1ccc(Cl)cc1)C1CCS(=O)(=O)C1 (centres undefined) | 0.3 | -2.3
Cc1nc(N2CCN(C(=O)C(C)Oc3ccccc3)CC2)cc(-n2cccn2)n1 (centres undefined) | -7.9 | -11.3
COCCNC(=O)[C@@]1(OCc2ccccc2F)CC(OCc2ccccc2C#N)[C@@H]2OC(C)(C)O[C@@H]2C1 (some centres undefined) | 19.4 | 12.0
NC(=O)c1ccsc1NC(=O)COC(=O)c1ccc([N+](=O)[O-])s1 | -0.6 | -1.8
CC(C)(C)c1csc(CN)n1 | -8.0 | -8.0
CCc1cccc(NC(=O)CNC2(c3ccc(F)cc3)CCC2)c1 | 8.0 | 7.0
CCOC(=O)C1=C(C)N(c2ccc(N(C)C)cc2)C(C)=C(C(=O)OCC)C1c1ccc(OC)c(Br)c1 | 0.9 | -0.2
Cc1ccccc1Oc1cc(C(F)(F)F)nc(SCc2ccccc2Cl)n1 | 2.7 | 16.4
Cc1cccc(S(=O)(=O)N2CN(CC3CCCO3)c3nc4ccccc4nc32)c1 (centres undefined) | -9.5 | -6.7
CCN(CC)c1ccc(C2NC(=O)NC(C)=C2C(=O)OC2CCCC(C)C2)cc1 (centres undefined) | -0.1 | -7.1
CCCNC(=O)C1(C)CCN(CCOc2ccc(Cl)cc2)C1 (centres undefined) | 1.6 | 2.7
CC(C)c1cc(C2CCN(C(=O)CCn3cnc4ccccc43)CC2)[nH]n1 | 10.4 | -0.4
COc1cccc(OC)c1C(=O)N(C)CC(OC)OC | 28.3 | 28.0
CCc1nc2c(Oc3nc4ccccc4s3)cccn2c1N(C)C(=O)c1ccncc1 | -1.3 | -3.9
CCN(Cc1ccccc1)C(=O)C1CC(=O)N(c2ccccc2)C1 (centres undefined) | 4.5 | 4.2
O=C(c1cccc2cccnc12)N1CCCC1c1cccs1 (centres undefined) | 1.0 | -0.2
CCS(=O)(=O)NCCc1csc2nc(-c3ccccc3F)nn12 | 1.1 | -0.4
O=C(NCCN1CCc2ccccc21)C1CC2(CCNCC2)CN1 (centres undefined) | -1.1 | -1.0
CC(C)CN(Cc1cccc(F)c1)Cc1ccc(C(O)(c2cccc(F)c2)c2cccc(F)c2)o1 | -2.3 | -3.4
Cc1ccccc1C1(O)CCN(Cc2ccccc2C(=O)O)C1 (centres undefined) | 2.4 | 1.6
CCN1CCN(c2nc(-c3cccs3)nc3cc(Cl)ccc23)CC1 | 30.7 | 37.4
CC(=O)Nc1cccc2c1CCN(C(=O)c1sc3nc(C)cc(C)c3c1C)C2 | -10.4 | -10.5
O=C(c1cc(Cl)c[nH]1)N1CCN(Cc2ccc3c(c2)OCO3)CC1 | 8.0 | 7.1
COc1cc(CN2C(=O)C(Cc3ccccc3)ON=C2c2ncccc2C)cc(OC)c1 (centres undefined) | 9.1 | 5.6
CC(C)(C)COC(=O)N1C[C@@H](CO)[C@@H]2Oc3ccccc3[C@@H]21 | 0.1 | -0.2
CCc1nc(C2CC(=O)Nc3cc(O)c(C)cc32)c(C)[nH]1 (centres undefined) | 7.9 | 11.1
COc1cccc(CNC(=O)C(=O)Nc2cc3c4c(c2)CCN4C(=O)CC3)c1 | 4.5 | 0.4
Cc1c(F)cccc1NC(=O)Nc1ccc(Nc2cc(-n3cccn3)ncn2)cc1 | -10.3 | -16.4
Cc1ccc2nc(C)c(C(=O)N3C[C@H](O)[C@@H](N4CCCCC4)C3)cc2c1 | 3.8 | 2.3
COc1ccc(S(=O)(=O)N2CCN(CC(OCc3cccc(C)c3)c3ccc(Cl)cc3)CC2)cc1OC (centres undefined) | 25.6 | 14.5
O=C(CN1C(=O)CCc2ccccc21)Nc1cccc(-n2cccn2)c1 | 14.1 | 4.1
CCCc1ncc(CN2CCC(C(=O)Nc3cccc(-c4cccc(F)c4)c3)CC2)cn1 | 10.2 | 9.3
CCCCc1ccc(-n2c(C)cn3c4c(=O)n(CCCO)c(=O)n(C)c4nc23)cc1 | 3.4 | 1.1
O=C(Nc1nn[nH]n1)c1ccc(I)c(F)c1 | 5.8 | 2.3
O=C(COc1cccnc1)N1CCOC(COc2ccc(F)cc2)C1 (centres undefined) | 30.4 | 32.3
CCC(CC)n1nc(C)cc1NC(=O)c1ccc2c(c1)OCC(=O)N2 | 4.8 | 6.0
CN(CCC#N)S(=O)(=O)N1CCCCC1c1cc2ccccc2[nH]1 (centres undefined) | -16.9 | -13.7
COc1ccc(C(=O)N(c2ccc(C(C)C)cc2)C2C=CS(=O)(=O)C2)cc1OC (centres undefined) | -4.3 | -6.4
Cc1nc(C(C)N(C)C(=O)c2cn(-c3ccccc3)nn2)c(C)s1 (centres undefined) | 4.5 | -6.6

In another format: results already given.
| Compound | NPYLR7 agonist | NPYLR7 agonist max-min |
| --- | --- | --- |
| O=C(Nc1ccnn1Cc1ccc(Cl)cc1)C1CCS(=O)(=O)C1 (centres undefined) | 0.3 | -2.3 |
| Cc1nc(N2CCN(C(=O)C(C)Oc3ccccc3)CC2)cc(-n2cccn2)n1 (centres undefined) | -7.9 | -11.3 |
| COCCNC(=O)[C@@]1(OCc2ccccc2F)CC(OCc2ccccc2C#N)[C@@H]2OC(C)(C)O[C@@H]2C1 (some centres undefined) | 19.4 | 12.0 |
| NC(=O)c1ccsc1NC(=O)COC(=O)c1ccc([N+](=O)[O-])s1 | -0.6 | -1.8 |
| CC(C)(C)c1csc(CN)n1 | -8.0 | -8.0 |
| CCc1cccc(NC(=O)CNC2(c3ccc(F)cc3)CCC2)c1 | 8.0 | 7.0 |

Next part.
SMILES | NPYLR7 agonist | NPYLR7 agonist max-min
CN1C(=O)CSC1=CC#N | 4.3 | 1.2
Nc1ccc(-c2ccc(-n3cccn3)cc2)cn1 | 7.6 | 4.3
CC(C)N1CCOC(CC(=O)N2CC(c3ccncc3)C2)C1 (centres undefined) | 1.0 | -4.7
Cn1nc(C(C)(C)C)c2c1NC(=O)CC2c1ccc(S(C)(=O)=O)cc1 (centres undefined) | 6.5 | -6.1
CCOc1ccc(-c2nc3cc(C)ccn3c2NC(C)(C)CC(C)(C)C)cc1 | 6.4 | 6.7
O=c1oc(-c2ccc(Cl)cc2)nc2ccccc12 | 12.7 | 3.8
C/C=C\C(=O)NCCn1ncc2c(=O)n(Cc3ccccc3C)cnc21 | -3.7 | -10.4
CCOC(=O)C1(Cc2ccc(F)cc2F)CCCN(C(=O)c2csc(C)n2)C1 (centres undefined) | 3.0 | 1.4
COc1cccc(C(=O)CSc2nnc(-c3ccco3)n2CC(C)C)c1 | -7.9 | -10.6
COCCNC(=O)C(NC(=O)c1ccc2c(c1)OCO2)C1CCN(C(=O)Cc2ccccc2)CC1 (centres undefined) | -5.2 | 2.5
O=C(CCc1cc(=O)[nH]o1)N1C[C@H]2CC=CC[C@H]2C1 | 11.8 | 8.9
COc1ccc(S(=O)(=O)N(C)C2CCC3(CC2)OCC(C)(C)CO3)cc1OC | -20.1 | -24.7
O=C(Nc1ccc(SCCN2CCOCC2)nn1)C1CC1 | 1.6 | 2.6
CC(C)N(C)C(=O)C1CCN(Cc2cc3c(cc2O)CCC3)CC1 | -5.9 | -6.7
CC(=O)Nc1ccc(F)c(C(=O)N(C)c2nccs2)c1 | 8.3 | 3.1
COc1cccc(CNC(=O)CSc2nc(=O)n(CC3CCCO3)c3c2CCC3)c1 (centres undefined) | -2.3 | -5.9
COCCCNC(=O)C(C)N1CCN(c2nc(C)cs2)CC1 (centres undefined) | 6.5 | 3.4
COC(=O)CSc1nc(C)c(C)c(C)c1C#N | -6.5 | -9.4
CN(Cc1nc2ccccc2s1)C(=O)NCC#Cc1ccccc1 | -1.5 | -2.8
CSC1(CNC(=O)c2ccc(Oc3ccccc3)nc2)CCOCC1 | 3.4 | 1.2
Cc1cccc(-n2c(N)c(Br)c(=O)[nH]c2=O)c1C | -12.4 | -13.8
Fc1ccc(Cn2nnc3c(=S)nc[nH]c32)cc1 | -5.7 | -7.0
CC(NC(=O)CCN(c1nc(-c2ccco2)nc2ccccc12)C1CC1)c1ccccc1 (centres undefined) | -25.9 | -17.7
COc1cc(-c2cccc(C(=O)O)c2)ccc1NC(C)=O | 7.5 | 6.9
COC(=O)CC(C)C(=O)N1C(C)CC2CCCCC21 (centres undefined) | 1.9 | -0.4
O=C(Cn1cnc2c(cnn2C2CCS(=O)(=O)C2)c1=O)c1ccc2c(c1)OCO2 (centres undefined) | -3.6 | -5.3
COc1ccc([N+](=O)[O-])cc1CN1CCCn2cccc2C1c1ccc(Cl)cc1 (centres undefined) | 18.2 | 21.1
N#Cc1ccc(/C=C/c2ccc(OCc3cscn3)cc2)nc1 | -5.3 | -3.3
COc1cccc(N2CC(NC(=O)Nc3cc(C)on3)CC2=O)c1 (centres undefined) | 8.0 | 5.2
COc1ccc(C2=NN(C(=O)CN3CCOCC3)C(c3ccccc3C)C2)cc1 (centres undefined) | -0.5 | 4.3
COc1ccc(-n2c(SC(C)C(=O)N(C)C3CCCCC3)nnc2-c2ccncc2)cc1 (centres undefined) | -0.4 | 18.8
CCOCCn1cc(C2CCN(S(=O)(=O)c3cc(C)c(Cl)cc3C)CC2)c2ccccc21 | 27.6 | 13.4
O=C1CCc2cc(-c3csc(=Nc4ccc(F)cc4)n3CCCn3cccn3)ccc2N1 | 0.6 | -3.2
COc1ccc(CCn2c(-c3ccc(Cl)c(F)c3)nc3ccccc3c2=O)cc1 | 4.7 | 5.9
C=CCn1c(=O)c2c(nc3n(-c4cc(C)cc(C)c4)c(C)cn23)n(C)c1=O | 10.7 | 18.1
COc1cccc(NC(=O)CCC2CCN(Cc3ccon3)CC2)c1 | -7.0 | -7.5

A different layout for part of the listing above.
Order of values – NPYLR7 agonist | NPYLR7 agonist max-min
> COc1ccc([N+](=O)[O-])cc1CN1CCCn2cccc2C1c1ccc(Cl)cc1 (centres undefined)
  18.2 | 21.1
> N#Cc1ccc(/C=C/c2ccc(OCc3cscn3)cc2)nc1
  -5.3 | -3.3
> COc1cccc(N2CC(NC(=O)Nc3cc(C)on3)CC2=O)c1 (centres undefined)
  8.0 | 5.2
> COc1ccc(C2=NN(C(=O)CN3CCOCC3)C(c3ccccc3C)C2)cc1 (centres undefined)
  -0.5 | 4.3

Other entries follow.
SMILES | NPYLR7 agonist | NPYLR7 agonist max-min
CC(=O)Nc1ccc(NC(=O)Nc2cc(C)on2)cc1Cl | 4.4 | 4.5
O=C(Cc1ccc2c(c1)OCO2)NC1CCCc2c1cnn2-c1ccc(F)cc1F (centres undefined) | 12.1 | 2.8
Cc1ccccc1CO[C@]1(C(=O)NCc2ccco2)CC(OCc2cccc(Cl)c2)[C@H](O)[C@H](O)C1 (some centres undefined) | 21.3 | 16.4
COc1ccc(OCC(=O)NCCOc2ccc3nnc(-c4ccccc4)n3n2)cc1 | -2.0 | -2.4
Cn1cc(CCNC(=O)N(CC2CCCO2)CC2CCCO2)cn1 (centres undefined) | 10.8 | 5.6
